AID504770: growth inhibition of E. coli YBA685, primary screen, V. cholerae RctB inhibitors; hit rate 0.27% among 130,000; E. coli YBA685 rctB-dependent plasmid, OD600 growth, 3 h; stronger effect = lower value; z-score (no concentration beside the values);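 active = z-score under -2 on both plates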;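 note: wells of about 30 µL received 100 nL stock; score is relative to mean and SD of the test wells; the first replicate is given; strong numbers were not always called active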
Ba CapD inh: Bacillus anthracis CapD inhibitors, primary screen, biochemical, fluorescence intensity | purified CapD enzyme, fluorescence intensity read-out; stronger effect = lower value; some hits fall short of the stated cut | z-score (test concentration not listed) | CapD gamma-glutamyltranspeptidase (Bacillus anthracis Ames Ancestor) | hit rate 0.23% among 140,000;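 active = z-score under -4 in either of two replicates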;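 note: stock transfer was 100 nL into about 40 µL; score is relative to mean and spread of the plate; one replicate is shown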
Active calls of the source: *; . = no result given.

Sample of the layout (4 entries):
SMILES	AID504770	Ba CapD inh
O=C(O)Cc1ccc(OC(F)F)cc1	-0.6	.
Cn1c(SCC(=O)NCC2CCCO2)ncc(C(=O)Nc2ccc(F)cc2)c1=O (stereo not drawn)	-0.4	.
COc1ccc(/C=C/C(=O)Nc2ccccc2C(F)(F)F)cc1	0.75	0.84
Cc1ccc(S(=O)(=O)N(CC(O)Cn2c3ccc(Cl)cc3c3cc(Cl)ccc32)c2ccccc2)cc1 (stereo not drawn)	.	0.085

All compounds of this part, from the start:
SMILES	AID504770	Ba CapD inh
O=C(O)Cc1ccc(OC(F)F)cc1	-0.6	.
Cn1c(SCC(=O)NCC2CCCO2)ncc(C(=O)Nc2ccc(F)cc2)c1=O (stereo not drawn)	-0.4	.
COc1ccc(/C=C/C(=O)Nc2ccccc2C(F)(F)F)cc1	0.75	0.84
Cc1ccc(S(=O)(=O)N(CC(O)Cn2c3ccc(Cl)cc3c3cc(Cl)ccc32)c2ccccc2)cc1 (stereo not drawn)	.	0.085
Cn1c(=NC(=O)c2cc(-c3ccccc3)nc3ccccc23)sc2cc(S(C)(=O)=O)ccc21	-0.15	-0.27
CCCSc1nc2c(c(-c3ccc(C)o3)c1C#N)CCCC2	.	1.6
COc1ccc(/C=N/N=C(N)N)cc1	0.1	-0.38
CN1/C(=C(/O)c2ccccc2)C(=O)c2ccccc2S1(=O)=O	-0.35	-0.53
COc1ccccc1N1CCN(Cc2cnc(-c3ccccc3)[nH]2)CC1	-0.55	0.11
CC(C)Oc1ccc(C(CC(=O)O)C(C)C)cc1 (stereo not drawn)	-0.7	.
Cc1nc2c(C)cccc2c2c1COC2	0.35	79
CCC(C)N(Cc1cn(CC)c2ccccc12)C(=S)Nc1ccc(C)cc1 (stereo not drawn)	0.8	0.74
CCC(=O)c1cn(CC(=O)NCC2CCCO2)c2ccccc12 (stereo not drawn)	0.4	0.24
Cc1nn(CC(=O)NCc2ccc3c(c2)OCO3)c(=O)c2c1sc1ccccc12	-0.4	0.41
O=C(O)COCC(=O)N1CCC(n2cccc2)CC1	-0.6	0.28
O=C(Cc1cccc2ccccc12)NCCOc1ccccc1	-0.65	0.38
O=C(CS(=O)(=O)c1cn(Cc2ccc(Cl)cc2)c2ccccc12)N1CCCCC1	1.9	.
O=C(CSCc1c(Cl)cccc1Cl)Nc1ccc(F)c(Cl)c1	.	-0.17
O=C(Cn1c2ccccc2c(=O)c2ccccc21)Nc1ccc(C(F)(F)F)cc1	.	5.8
COC(=O)c1ccc(C(=O)OC)nc1	.	-0.39
Cc1cn(-c2nc(-c3ccccc3)oc2-c2ccccc2)c(=O)nc1Nc1ccccc1	.	-0.26
CC1CN(c2nc3c(Cl)cc(Cl)cc3s2)CC(C)O1 (stereo not drawn)	-0.45	-0.61
O=C(NC(Cc1c[nH]c2ccccc12)C(=O)OCc1ccccc1)OCC(F)F (stereo not drawn)	.	0.81
c1ccc(-c2ccc(-c3cnc(-c4ccncc4)s3)cc2)cc1	.	6.4
COC(CNS(=O)(=O)c1cccc2cccnc12)OC	0.8	38

Arranged by number of heavy atoms (smallest number first): part of the list above.
SMILES	AID504770	Ba CapD inh
COc1ccc(/C=N/N=C(N)N)cc1	0.1	-0.38
Cc1nc2c(C)cccc2c2c1COC2	0.35	79
CC(C)Oc1ccc(C(CC(=O)O)C(C)C)cc1 (stereo not drawn)	-0.7	.
O=C(O)COCC(=O)N1CCC(n2cccc2)CC1	-0.6	0.28
COC(CNS(=O)(=O)c1cccc2cccnc12)OC	0.8	38
O=C(CSCc1c(Cl)cccc1Cl)Nc1ccc(F)c(Cl)c1	.	-0.17
O=C(Cc1cccc2ccccc12)NCCOc1ccccc1	-0.65	0.38
COc1ccccc1N1CCN(Cc2cnc(-c3ccccc3)[nH]2)CC1	-0.55	0.11
CCC(C)N(Cc1cn(CC)c2ccccc12)C(=S)Nc1ccc(C)cc1 (stereo not drawn)	0.8	0.74
O=C(CS(=O)(=O)c1cn(Cc2ccc(Cl)cc2)c2ccccc12)N1CCCCC1	1.9	.
Cc1cn(-c2nc(-c3ccccc3)oc2-c2ccccc2)c(=O)nc1Nc1ccccc1	.	-0.26
Cn1c(=NC(=O)c2cc(-c3ccccc3)nc3ccccc23)sc2cc(S(C)(=O)=O)ccc21	-0.15	-0.27
Cc1ccc(S(=O)(=O)N(CC(O)Cn2c3ccc(Cl)cc3c3cc(Cl)ccc32)c2ccccc2)cc1 (stereo not drawn)	.	0.085

(listing goes on)
SMILES	AID504770	Ba CapD inh
CC(C)(O)c1ccc(-c2ccccc2)cc1	-0.25	-0.035
Cc1ccc(Nc2ncccc2C(=O)NC2CCCCC2)cc1	-0.25	.
O=C(NCc1cccnc1)c1ccc(-n2cc(-c3ccc(Cl)cc3)cn2)cc1	.	0.39
O=C(NCCN1CCNC1=O)c1ccc(OC(F)(F)F)cc1	-0.65	-0.8
CCOC(=O)C1=C(C)N=c2s/c(=C3\C(=O)N(OC(C)=O)c4ccccc43)c(=O)n2C1c1ccc(C)cc1 (stereo not drawn)	.	-0.17
COc1ccc(C2=NN(C(=O)CCC(=O)O)C(c3cccc(OC)c3OC)C2)cc1 (stereo not drawn)	.	1.9
S=C(N=P(c1ccccc1)(N1CCOCC1)N1CCOCC1)NCc1cn2ccsc2n1	-0.8	.
CC1=C(C(=O)OC(C)C)C2(C(=O)Nc3ccccc32)C(C(=O)OCc2ccccc2)=C(N)O1 (stereo not drawn)	.	0.01
Cc1ccc(S(=O)(=O)CCn2c(=O)oc3cccnc32)cc1	-0.75	90
Clc1ccc(-c2cnc3n2CCC3)cc1Cl	-0.4	-0.2
CN1C(=O)CS(=O)c2ccc(C(=O)NC3CC3)cc21 (stereo not drawn)	-0.9	0.56
COc1ccc(N2C(=O)/C(=C/c3ccc(C(C)C)cc3)NC2=S)cc1	.	-0.57
CCn1c(SC(C)C(N)=O)nnc1-c1cccs1 (stereo not drawn)	0	.
O=C(NCc1ccc(Cl)cc1)c1ccc(-n2cc(-c3nc4ccccc4o3)cn2)cc1	.	-0.33
O=C(O)COCC(=O)Nc1ccc(I)cc1	.	-0.92
CCOC(=O)/C=C1/C(=O)N(Cc2ccc(Cl)c(Cl)c2)c2ccccc21	.	0.13
OCCN1CCN(Cc2ccccc2)CC1	-0.65	0.18
COC(=O)CSc1nc(-c2ccccc2)c(-c2ccccc2)o1	-0.2	5
Cc1ccc(C)c2[nH]c(=O)c(C(c3nnnn3Cc3ccccc3)N3CCN(C)CC3)cc12 (stereo not drawn)	-0.1	.
CC(=O)NC(=O)c1cc2ccccc2oc1=Nc1ccccc1	0.05	0.55
CC(C)(C)c1ccc(O)c(C(=O)Oc2ccccc2)c1	0.1	0.18
O=C(c1ccccc1C(=O)N(c1ccccc1)c1ccccc1)N1CCCCC1	-0.05	0.14
O=S(=O)(c1cc(Br)c(Cl)s1)N1CCCC1	.	-0.22
O=C(CC1Sc2ccccc2NC1=O)N/N=C/c1ccc(F)c(Br)c1 (stereo not drawn)	.	-0.59
CCC(=O)N1CCc2cc(Br)cc(S(=O)(=O)CCC(=O)NCC3COc4ccccc4O3)c21 (stereo not drawn)	-0.75	0.21
Following part:
SMILES	AID504770	Ba CapD inh
COc1ccc(-c2cc(C3CC3)[nH]c(=S)c2C#N)cc1	-0.6	.
COc1ccc(C2C3=C(CC(c4ccccc4)CC3=O)Nc3ccccc3N2C(=O)C(C)C)cc1OC (stereo not drawn)	.	1.2
COc1ccc(CNC(=O)c2cc3nc(-c4ccc(OC)cc4)cc(C(F)(F)F)n3n2)cc1	.	2.1
O=c1oc2ccc3ccccc3c2cc1-c1nnc(-c2ccccc2Br)o1	.	2.5
CCC(CC)c1nnc(NC(=O)c2c(-c3ccccc3)noc2C)s1	-1.5	-0.15
N#Cc1c(N)nc(SCC(=O)c2ccc([N+](=O)[O-])cc2)c(C#N)c1Cc1ccccc1	.	0.4
O=C(COc1ccc2ccc(=O)oc2c1)NC1CC1	0.3	68
COc1ccc2ccccc2c1C=Nc1cccc(CO)c1	-0.35	-0.54
Cn1nccc1NC(=O)CC1(CC(=O)O)CCCCC1	0.45	-0.59
O=C(CN1CCCC1)N1c2ccccc2Sc2ccc(Cl)cc21	.	-0.41
CCCCCCNc1ccc(NC(=O)c2ccc(C3CCC(CCCCC)CC3)cc2)c2c1C(=O)c1ccccc1C2=O (stereo not drawn)	.	0.08
O=C(CSc1nc(O)cc(=O)[nH]1)N1c2ccccc2CCc2ccccc21	0.7	-0.17
COc1ccc(-c2nnc(-c3cc4ccccc4oc3=O)o2)cc1	.	-0.28
O=C(Cn1ncn2c(cc3sccc32)c1=O)NC1CCCCCC1	-0.05	-0.32
CCOc1ccccc1-n1c(=S)sc2c1nc(SC)n1c3ccccc3nc21	.	-0.42
COc1cccc(C2=NN(C(=O)c3ccc(Cl)cc3)C(O)(C(F)(F)F)C2)c1 (stereo not drawn)	.	-0.53
O=C(O)c1ccccc1C(=O)c1ccc(-c2ccccc2)cc1	1.1	0.17
CCOC(=O)c1cc(-c2ccc(/C=C3/NC(=S)NC3=O)o2)ccc1Cl	.	0.075
CCOc1ncnc2sc3c(c12)CCCC3	-0.45	1.6
CN(C)CCCNC(=O)c1ccc(-c2nc(-c3ccc(Cl)cc3)cs2)cc1	.	9.6
CCOC(=O)CC(=O)c1ccc([N+](=O)[O-])cc1	.	-0.14
O=C(Nc1cccc(C(F)(F)F)c1)c1ccc(F)c(S(=O)(=O)N2CCN(c3ccccc3)CC2)c1	.	0.055
FC(F)(F)c1ccnc(N2CCN(Cc3cnc(-c4ccccc4)[nH]3)CC2)c1	-0.15	6.5
N#C/C(N)=C(\C#N)N=Cc1ccc(Cl)cc1	-0.5	-1.3
CN(CC(=O)NCc1cc(-c2ccc(Cl)cc2)no1)Cc1ccccc1	.	-0.18
Going on with the list:
SMILES	AID504770	Ba CapD inh
CCOC(=O)N1CCC(N2CC34C=CC(O3)C(C(=O)Nc3ccc(C)cc3)C4C2=O)CC1 (stereo not drawn)	0.35	0.48
O=C(Nc1ccc(S(=O)(=O)N2CCCC2)cc1)c1ccc(COc2ccc3c(c2)CCC3)cc1	0.95	0.78
Cn1cc(-c2cc(C(=O)O)on2)cn1	-0.25	.
O=C(c1ccc(-c2ccccc2)cc1)N1c2ccccc2CCc2ccccc21	.	-0.65
COC(=O)C(C)Oc1cc(C)cc2oc(=O)cc(-c3ccccc3)c12 (stereo not drawn)	2.6	-0.91
CCOC(=O)c1sc2nc(CC(=O)OC)nc(Nc3ccc(OC)c(OC)c3)c2c1C	.	-0.11
C=CCN1C(=O)/C(=c2/s/c(=C3\Sc4ccc(OC)cc4N3CC)c(=O)n2CC)SC1=S	.	-0.26
COc1ccccc1NC(=O)c1cccs1	-0.4	-0.53
Cc1occc1C(=O)NN	0.35	.
COc1cc(C2C(C#N)=C(N)Oc3n[nH]c(C)c32)ccc1OCc1ccccc1Cl (stereo not drawn)	.	-0.27
Cc1nn(-c2ccccc2)c(Cl)c1/C=C1\C(=O)N(C)c2ccccc21	2.2	-0.86
COc1ccc(C(=O)O)cc1OC(C)C	.	-0.32
CN(C)C(=O)CSc1nc(-c2ccccc2)cs1	-0.05	.
CCNC(=O)c1ccc(-c2nc(CS(=O)c3ccc(C)cc3)c(C)o2)cc1 (stereo not drawn)	1.1	-1.4
O=S(=O)(c1ccc2c(c1)CCCC2)N1CCNCC1	0.25	.
CCCCN(Cc1ccco1)C(=O)Cn1ncc2c(=O)oc3ccc(C)cc3c21	0.8	-0.2
CN=C(C)/C(C(=O)OC)=C(/O)c1ccc(Cl)cc1	-0.15	-0.73
COC(=O)c1sccc1NC(=O)Nc1cn(C)c(=O)c2ccccc12	-0.4	1.2
CC(C)CN(CC(C)C)S(=O)(=O)c1ccc(Br)s1	0.1	-0.065
COc1ccc(OCCN)cc1	-0.7	1.7
NC(=O)COc1ccc(=O)n(-c2ccccc2)n1	0.4	0.33
CC1=NN(c2ccccc2)C(C2=C(C)CCCC2(C)C)C1 (stereo not drawn)	-0.25	-0.17
COC(=O)Cn1c(=NC(=O)C(C)(C)C)sc2cc(S(N)(=O)=O)ccc21	0.4	.
Cc1cc(C(F)(F)F)c2c(=O)[nH]c(=O)n(Cc3ccccc3)c2n1	0.25	.
CC(C)(C)c1ccc(C(=O)NC(=S)Nn2cnnc2)cc1	0.6	.
(cont.)
SMILES	AID504770	Ba CapD inh
O=C(O)C(Cc1ccccc1)n1cccc1 (stereo not drawn)	-0.45	.
S=c1[nH]c2c(s1)C1c3ccccc3OCC1CS2 (stereo not drawn)	0.25	.
CC1(C)CC(=O)C2=C(C1)Nc1cc3c(cc1C2c1ccc(Cl)cc1)OCO3 (stereo not drawn)	0.05	45
Cc1cc2ccccc2n1CCNC(=O)C1CC1	0.1	0.2
Cc1oc2ccc(NS(=O)(=O)c3ccc4c5c(cccc35)C(=O)N4)cc2c1C(=O)OCc1ccccc1	.	0.19
Nc1c(-c2ccccc2)nc2ccccn12	-1.8	-0.41
O=C(Cn1cnc2ccccc2c1=O)N1CCc2ccccc2C1	-0.8	.
c1ccc2c(c1)Cc1cccnc1-2	.	0.075
Cc1cccc(C)c1NC(=S)NNC(=O)c1cccnc1	.	-0.41
CCN1C(=O)C2(c3ccccc31)N1CC3(C)CN2CC(C)(C1)C3=O (stereo not drawn)	.	-0.41
COc1ccc(C2=N/C(=C/c3c(F)cccc3Cl)C(=O)O2)cc1Br	.	0.62
COc1ccccc1NC(=O)C1OC2OC(C)(C)OC2C2OC(C)(C)OC12 (stereo not drawn)	.	-0.47
CCNS(=O)(=O)c1ccc(NC(=O)Nc2cccc(C(F)(F)F)c2)cc1	-0.7	0.045
Cn1cccc1C=NN1CCN(C2c3ccccc3-c3ccccc32)CC1	-0.85	-0.46
CCCn1c(CCNC(=O)c2ccccc2)nc2ccccc21	1.1	-0.15
Cc1nc(CC(=O)Nc2cccc(Cl)c2)cs1	0.55	0.11
CC(=O)Nc1ccccc1SCc1cc(=O)n2ccsc2n1	-0.25	0.22
O=C(CSc1nccc(=O)[nH]1)NCc1ccccc1	1.6	-0.65
O=C(Cc1c(O)c2ccccc2[nH]c1=O)Nc1ccc(F)cc1	0.4	0.5
